Sfp inh: Sfp phosphopantetheinyl transferase inhibition; Q9F4F7; Biochemical Sfp PPTase activity, qHTS; Potency, µM, for inactives: max response, negative = inhibition, hits mostly inhibitors; 310,000 compounds, 3.5% hits; active = well fitted inhibition curve with a large enough effect; inconclusive = small, poorly fitted or top-dose-only effect, or another doubt; inactive = no such curve, though single readings can be large or run the other way;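 note: the enzyme is Sfp with the accession as filed and its product quenches rhodamine fluorescence; potency is the fitted concentration of half-maximal effect; 0% = enzyme reaction without inhibitor and -100% = no enzyme wells; top concentration of the series not given in the record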
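Fluorescence-quenching assay with 15 nM Sfp, 5 uM rhodamine-CoA and 12.5 uM BHQ-2-labelled ybbR peptide in pH 7.6 Hepes/MgCl2 buffer. Enzyme was pre-incubated with compound for 15 min at room temperature. Rate was taken from the 30-min fluorescence change (525/598 nm).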
TRPV1 PAM: potentiators of human vanilloid receptor 1 (TRPV1). 320,000 compounds, 0.02% hits. TRPV1-expressing cells, Fluo-8 calcium influx, capsaicin EC20 potentiation; host cell line not named in the record; control for the full effect not named in the record. potentiation, % at 8.33 µM; active means potentiation above 80%; inconclusive means 30% to 80%; inactive means below 30%; note: 0% is about no effect
Target sequence (Q8NER1 whole entry, looked up): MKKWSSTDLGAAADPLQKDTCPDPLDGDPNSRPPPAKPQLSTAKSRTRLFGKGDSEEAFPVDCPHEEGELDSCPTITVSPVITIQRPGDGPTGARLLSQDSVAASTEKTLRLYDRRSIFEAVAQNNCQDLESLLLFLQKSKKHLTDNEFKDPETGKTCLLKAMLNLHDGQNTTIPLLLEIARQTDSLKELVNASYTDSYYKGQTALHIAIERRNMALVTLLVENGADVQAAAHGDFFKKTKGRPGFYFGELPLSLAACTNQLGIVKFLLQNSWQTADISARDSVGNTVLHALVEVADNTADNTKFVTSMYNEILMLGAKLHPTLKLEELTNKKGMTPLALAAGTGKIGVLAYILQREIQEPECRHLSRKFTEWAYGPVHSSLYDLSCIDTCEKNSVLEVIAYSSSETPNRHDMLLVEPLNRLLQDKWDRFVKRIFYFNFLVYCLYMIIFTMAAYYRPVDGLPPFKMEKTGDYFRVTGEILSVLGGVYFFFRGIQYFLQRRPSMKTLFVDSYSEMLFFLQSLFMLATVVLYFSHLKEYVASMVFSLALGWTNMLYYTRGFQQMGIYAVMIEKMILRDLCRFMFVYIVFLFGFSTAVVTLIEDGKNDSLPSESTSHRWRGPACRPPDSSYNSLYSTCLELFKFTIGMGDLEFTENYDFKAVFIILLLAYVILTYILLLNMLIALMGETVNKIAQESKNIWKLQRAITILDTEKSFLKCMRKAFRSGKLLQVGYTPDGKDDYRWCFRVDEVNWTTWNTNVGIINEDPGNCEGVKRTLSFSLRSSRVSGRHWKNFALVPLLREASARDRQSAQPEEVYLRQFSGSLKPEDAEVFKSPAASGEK
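Cells expressing TRPV1 were dye-loaded with Fluo-8 and read kinetically: 10 s baseline, 3 min after compound (agonist portion), then 2 min after EC20 capsaicin (allosteric enhancer portion). Calcium-bound dye fluorescence at 480/520 nm.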
Menin MLL FP FL: displaces fluorescein MLL peptide from human menin | FP activity change, % at 61.4 µM | 290,000 tested, under 10 active | Fluorescence polarization, fluorescein-MLL peptide displacement from menin; inconclusive = falling polarisation curve, or a change in total fluorescence; inactive = total fluorescence flat and polarisation flat or rising; no compound was filed as active; the % refers to the polarisation; negative = inhibition;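 note: % of control where 0% means no effect; inhibitors lower the polarisation; unlabelled MLL peptide was the positive control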
CtBP-E1A blk: inhibitors of CtBP/E1A interaction; 340,000 compounds, 0.49% hits; AID 651724; AlphaScreen GST-E1A/His-CtBP binding, 1536-well; active compounds read low; control for the full effect not named in the record; activity change, % (no concentration beside the values); in the data active means activity change below about -65%; inconclusive means about -30% to -65%; inactive means above about -30%; note: % is set by controls: 0 for no effect and ±100 for the full control effect
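AlphaScreen with 125 nM GST-E1A and 125 nM His-CtBP (5X stocks) in Tris pH 8.0, 300 mM NaCl, BSA, Tween 20, TCEP. Compounds preincubated 2 h at 37 deg C, then glutathione donor/nickel acceptor beads added for 1 h at 37 deg C in dark.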
ClpP mod: qHTS Assay for Activators of ClpP | ATP-dependent Clp protease proteolytic subunit (Bacillus subtilis (strain 168)), P80244 | purified B. subtilis ClpP, FRET peptide cleavage, 20 min | 340,000 compounds, 1.9% hits | Potency, µM (series often up to 57.5 µM), without a hit: at the top dose activity change, negative = active; active = well fitted falling curve with a large enough effect; inconclusive = small, poorly fitted or top-dose-only effect; inactive = no such curve, though single readings can be large or run the other way; note: potency is the fitted concentration of half-maximal effect; the source files actives as falling curves though it sought activators and does not explain the sign; nearly all actives have a fitted effect of over 65% in size; many hits overshoot -100%
Target sequence (P80244 whole entry, looked up): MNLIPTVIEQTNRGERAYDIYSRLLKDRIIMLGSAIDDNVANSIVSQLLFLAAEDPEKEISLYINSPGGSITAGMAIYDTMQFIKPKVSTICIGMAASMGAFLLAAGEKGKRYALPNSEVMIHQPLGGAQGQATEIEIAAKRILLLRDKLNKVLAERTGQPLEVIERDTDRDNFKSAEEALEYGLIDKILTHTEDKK
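ClpP 10 microg/mL final, pH 8 Tris/KCl buffer with BSA, glycerol, Tween-20; compound pinned in; FRET-FV substrate; RT 20 min; Ex320/Em430; ΔFRET vs ADEP 5.8 microM, DMSO, no enzyme.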
gsp antagonist: gsp mutant antagonism. gsp-mutant cells, cAMP HTRF, 30 min; control for the full effect not named in the record. Potency, µM (top dose mostly 76.9 µM), inactives show top-dose activity change, negative = inhibition, hits mostly inhibitors. AID 624288. 340,000 compounds, 0.4% hits; active = falling curve of any shape with a large fitted effect; inconclusive = falling curve, mostly with a smaller effect; inactive = flat or rising curve; cell line not stated here;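 note: intracellular cAMP measured with PDE inhibitor Ro 20-1724 present during compound exposure; potency is the fitted concentration of half-maximal effect; % is set by controls: 0 for no effect and ±100 for the full control effect; nearly all actives have a fitted effect of over 65% in size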
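Cells, 2000/well, grown 16–24 h in DMEM 10% FBS with 0.5 mg/ml G418, then compounds plus […] (300 uM addition stock), 30 min at 37C. cAMP read by HTRF (cAMP-d2 and anti-cAMP antibody-K in lysis buffer) after 30 min RT.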
gsp ag: agonists of gsp mutant (McCune-Albright syndrome); gsp mutant cells, cAMP HTRF, 30 min; control for the full effect not named in the record; Potency, µM (series often up to 76.9 µM), for inactives: top-dose activation (cAMP increase), actives largely listed as activators; 340,000 compounds, 0.13% hits; active = well fitted activation curve with a large enough effect; inconclusive = small, poorly fitted or top-dose-only effect, or another doubt; inactive = no such curve, though single readings can be large or run the other way; cell line not stated here;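 note: phosphodiesterase inhibitor Ro 20-1724 added with compounds to block cAMP breakdown; potency is the fitted concentration of half-maximal effect; nearly all actives have a fitted effect of over 60% in size; about a fifth of the inactives were tested at one dose only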
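Cells in DMEM/10% FBS with G418 were pretreated with compounds in DMSO plus […] (300 uM stock) for 30 min at 37C. cAMP was measured by HTRF (cAMP-d2 plus anti-cAMP antibody-K) after 30 min at room temperature.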
* marks the source's active call; other numbers are inactive results; ? = inconclusive; . = not tested or not shown; & = joins results of further samples; [ ] = remark or other dose.

SMILES	Sfp inh	TRPV1 PAM	Menin MLL FP FL	CtBP-E1A blk	ClpP mod	gsp antagonist	gsp ag
Cc1ccc(C(=O)N(CN2CCCC2=O)c2ccc(F)cc2)cc1C	16%	13	2.9	6	-0.7%	?	-7%
CC(C)(C)c1cc(NC(=O)CCl)n(-c2ccccc2)n1	11%	-13	2.1	-4	.	5%	-31%[15.4 µM]
COCc1ccc(-c2c(-c3cccc(OC)c3)sc3ccc(OC)cc23)cc1	.	-1	.	7	-30%	-17%	.
CCn1c(-c2cc(-c3cc(C)ccc3C)nc3ccccc23)n[nH]c1=S	-6%	-1	5.1	1	-1.9%	-19%	1%
O=C(Cc1ccc(F)cc1)NC1CCCCCC1	25%	-14	-3.6	4	40%	?	-25%[15.4 µM]
COc1ccc(CC(NC(C)=O)C(=O)NC2CCN(c3ncccc3[N+](=O)[O-])CC2)cc1 (stereo not given)	-3%	6	1.1	-1	-4.5%	-3%	-35%[inhibitor]
O=S(=O)(Nc1nc2ccccc2nc1Cl)c1ccc(Br)cc1	71µM*	8	?	.	-16%	-19%	?
Cc1cc(=O)oc2cc(OCc3ccc(C(=O)N4CCN(c5ccccc5)CC4)cc3)ccc12	-6%	-1	13	-4	-0.1%	-22%	5%[15.4 µM]
CC1SC(C)C(=O)N(CC(=O)Nc2ccc3c(c2)OCO3)C1=O (stereo not given)	-7%	14	4.1	-2	.	14%	7%[15.4 µM]
Cc1cccc(NC(=O)CSc2nnc(CSc3nc(C)cc(C)n3)o2)c1	12%	30	1.9	-8	-1.9%	-9%	-29%
CC(C)OCCCn1c(=NC(=O)c2cccs2)c(C#N)cc2c(=O)n3ccccc3nc21	3%	4	?	3	.	?	10%
Cc1ccnc(NC(=O)Cn2c(=O)oc3ccccc32)c1	14%	3	.	-1	-0.4%	-13%	6%
Cc1nn(-c2ncc(C(F)(F)F)cc2Cl)c(=O)n1-c1ccc(F)cc1	14%	1	-1.6	16	0.1%	20%	-8%[15.4 µM]
COC(=O)C1=C(C)Nc2nc(-c3ccccc3)nn2C1c1ccc(C)o1 (stereo not given)	4%	.	-0.7	-7	-5.4%	0%	-1%
CCC(NC(=O)c1ccccc1NC(=O)c1ccccc1)C(=O)NNC(=O)CSc1nc2ccccc2o1 (stereo not given)	-2%	3	-0.1	?	.	?	13%[15.4 µM]
Cc1nn(Cc2cccc(C(=O)O)c2)c(C)c1[N+](=O)[O-]	16%	11	0.8	1	0.0%	-14%	?
O=C(N/N=C1\CCCc2oc(C(=O)O)cc21)c1ccccc1	4%	-12	2.4	0	.	3%	30%
Cc1c(C(=O)NCCSCc2ccc(F)cc2)cnn1-c1ccc(Cl)cc1	9%	2	0.7	-2	.	-13%	23%[15.4 µM]
CC(=O)c1ccc(NC(=O)CCc2nnc3ccc(NCc4ccco4)nn23)cc1	1%	2	-2.5	.	-5.5%	0%	-7%
O=C(NCc1ccco1)C(NS(=O)(=O)c1cccc2nsnc12)c1ccccc1 (stereo not given)	8%	2	0.8	-18	-1.0%	0%	6%
COc1ccc(NS(=O)(=O)c2cccc(C(=O)NNC(=O)NCCCl)c2)cc1	0%	-5	5.4	-7	-0.3%	10%	19%[15.4 µM]
O=C(CCc1nnc(Cc2cccc(C(F)(F)F)c2)o1)NC1CC1	15%	6	0.9	2	2.1%	10%	-14%
CCOC(=O)/C(C#N)=C/c1ccc(N2CCN(Cc3ccccc3)CC2)cc1	4%	-3	?	-11	0.8%	-18%	-19%
Cc1ccc(-c2nnc(-c3ccccc3)o2)cc1Br	.	.	.	6	-12%	3%	2%

Quoted at random: 3 compounds from above
SMILES	Sfp inh	TRPV1 PAM	Menin MLL FP FL	CtBP-E1A blk	ClpP mod	gsp antagonist	gsp ag
CCC(NC(=O)c1ccccc1NC(=O)c1ccccc1)C(=O)NNC(=O)CSc1nc2ccccc2o1 (stereo not given)	-2%	3	-0.1	?	.	?	13%[15.4 µM]
Cc1cc(=O)oc2cc(OCc3ccc(C(=O)N4CCN(c5ccccc5)CC4)cc3)ccc12	-6%	-1	13	-4	-0.1%	-22%	5%[15.4 µM]
CCOC(=O)/C(C#N)=C/c1ccc(N2CCN(Cc3ccccc3)CC2)cc1	4%	-3	?	-11	0.8%	-18%	-19%

New compounds follow.
SMILES	Sfp inh	TRPV1 PAM	Menin MLL FP FL	CtBP-E1A blk	ClpP mod	gsp antagonist	gsp ag
O=C(Nc1ccc2c(c1)OCO2)c1cc2ncc(Br)cn2n1	-7%	-6	-1.0	-1	-1.3%	3%	-33%[inhibitor]
CCn1nc(C)c(/C=N/NC(=O)Cn2cncn2)c1C	9%	-9	7.8	-14	.	4%	-27%[15.4 µM]
CCCCN(C(=O)CSc1nnnn1C)C1CCS(=O)(=O)C1 (stereo not given)	.	-2	.	-1	0.7%	4%	-4%
O=[N+]([O-])c1cccc(-c2cn(-c3ccccc3)c(=S)[nH]2)c1	15%	-8	-0.8	.	-0.3%	-5%	-7%
CC(C)CN(CC(C)C)C(=O)Nc1ccc(F)cc1F	-8%	-5	1.0	9	1.7%	-3%	-19%
Cc1ccc(C(c2nnnn2CS(=O)(=O)c2ccc(C)cc2)N2CCC(C(N)=O)CC2)cc1 (stereo not given)	-6%	-17	-3.0	0	0.3%	?	-16%
CCCCCCC(=O)Oc1ccc(N2C(=O)CCC2=O)cc1	11%	10	-0.2	-3	.	8%	0%[15.4 µM]
CN(Cc1cc2ccccc2[nH]c1=O)C(=O)C1CCCCC1	-9%	-23	0.6	-2	-16%	2%	10%
Cn1c(=O)c(=O)n(C)c2cc(S(=O)(=O)N3CCCCCC3)ccc21	7%	8	2.4	3	-10%	2%	?
COc1cc(/C=C/C(=O)c2ccc3c(c2)OCO3)cc(OC)c1OC	.	13	.	2	2.0%	-19%	4%
Cc1ccc(CNC(=O)CN(Cc2ccccc2)S(C)(=O)=O)cc1	14%	10	-1.6	12	-2.0%	1%	2%
Cn1c(SCC(=O)Nc2ccccc2Cl)nnc1C1CC1	16%	-2	-1.0	-24	.	10%	-27%[15.4 µM]
CS(=O)(=O)c1ccc2nc(NC(=O)c3ccc(Cl)nc3)sc2c1	-9%	-24	4.8	4	-0.9%	32µM*	?
COCCN1CN=C(Nc2nc3ccccc3o2)NC1	5%	-8	1.5	0	0.0%	-1%	7%
COc1ccc(C2SCCN2S(=O)(=O)c2ccccc2)cc1 (stereo not given)	-10%	-12	1.3	-9	.	.	8%[15.4 µM]
Cc1c(-n2c(=S)[nH]c3ccccc3c2=O)c(=O)n(-c2ccccc2)n1C	-1%	5	-4.8	-14	-3.1%	5%	-24%
COc1ccc(OCCOC(=O)c2cccc(-n3cnnn3)c2)cc1	6%	-6	-1.8	-1	0.8%	-14%	-27%
CC(=O)N1CCN(S(=O)(=O)c2ccc(S(=O)(=O)NC3CC3)cc2)CC1	8%	3	-0.7	32	1.7%	11%	-13%
CC1=NN(C(N)=S)C(=O)C1N=Nc1ccc(C)c(Br)c1 (stereo not given)	17%	0	4.9	.	1.2%	-11%	2%
CC(C)(C)C(=O)/C=C(\N)c1ccncc1	2%	2	-0.9	-5	0.8%	-10%	-42%
Cc1cc(Br)cc(Br)c1OCC(=O)NNC(=O)Nc1ccccc1	.	.	.	1	.	2%	-18%[15.4 µM]
O=C(c1ccccc1F)N1CCN(c2ccc([N+](=O)[O-])c3ncccc23)CC1	6%	2	2.7	-2	-2.8%	-11%	0%
CCc1nnc(NS(=O)(=O)c2ccc(NC(=O)c3cc(Cl)ccc3Cl)cc2)s1	-10%	-2	-2.6	2	.	-14%	-1%
O=C(NCc1nc2ccccc2[nH]1)C1=C[C@@H](c2ccc(Br)cc2)C[C@@H](OCCCCO)O1	19%	0	0.5	1	-2.7%	-16%	.
OCCN1CCN(CC(O)COc2ccc3ccccc3c2)CC1 (stereo not given)	?	?	-1.7	0&-4	-4.4%	12%&-5%	?
CC1(/[N+]([O-])=C\c2ccccc2F)CCCCC1=O (stereo not given)	19%	-14	3.0	-11	-0.7%	9%	1%[15.4 µM]
O=C(NCc1ccccc1)c1nnc(CS(=O)(=O)c2ccccc2)o1	18%	3	1.4	0	2.2%	7%	-14%
CC1CCN(C(=O)c2[nH]cnc2C(=O)NCC(=O)OC(C)(C)C)CC1	1%	22	0.2	-19	-3.0%	-6%	?
Cc1c(C)n(CC(O)CN2CCCCC2)c2ccccc12 (stereo not given)	-25%	8	1.4	-15	32µM*	-7%	-47%[inhibitor]
CNC(=O)Cn1c(=O)n(C)c2ccccc21	12%	2	-0.1	1	-1.6%	-4%	7%
Cc1cccc([C@@H]2[C@@H]3C(=O)N(Cc4ccccc4)C(=O)[C@@H]3[C@]3(C)C(=O)N(c4ccc(C(F)(F)F)cc4)C(=O)N23)c1	17%	5	2.7	0	-1.9%	-6%	.
Cc1ccc2c(c1)NC(=O)c1cc([N+](=O)[O-])ccc1O2	-1%	10	4.8	.	-0.1%	2%	-3%
COc1ccc(CCNC(=O)Cn2nc([N+](=O)[O-])c(Br)c2C)cc1OC	25%	7	3.4	-19	-3.2%	9%	-2%[15.4 µM]
CC(=O)Nc1cccc(C(=O)N2CCN(S(=O)(=O)c3ccc(C4CCCCC4)cc3)CC2)c1	.	.	.	.	-0.3%	-2%	-10%
O=C(O)c1cc2nc(-c3ccccc3)cc(-c3ccccc3)n2n1	-24%	-2	2.3	17	.	-12%	-1%[15.4 µM]

Complete entries, quoted from the list. Order of values: Sfp inh	TRPV1 PAM	Menin MLL FP FL	CtBP-E1A blk	ClpP mod	gsp antagonist	gsp ag
`OCCN1CCN(CC(O)COc2ccc3ccccc3c2)CC1` (stereo not given) is entered as ?	?	-1.7	0&-4	-4.4%	12%&-5%	?
`Cc1cccc([C@@H]2[C@@H]3C(=O)N(Cc4ccccc4)C(=O)[C@@H]3[C@]3(C)C(=O)N(c4ccc(C(F)(F)F)cc4)C(=O)N23)c1` is entered as 17%	5	2.7	0	-1.9%	-6%	.
`Cc1c(C)n(CC(O)CN2CCCCC2)c2ccccc12` (stereo not given) is entered as -25%	8	1.4	-15	32µM*	-7%	-47%[inhibitor]

Screening results deposited in PubChem by National Center for Advancing Translational Sciences (NCATS).
